# Screening results (PubChem BioAssay)
# WNV protease inh – inhibitors of West Nile virus NS2B-NS3 protease; P06935; WNV NS2B-NS3 protease, fluorogenic substrate Ex360/Em465; hits give low values; z-score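 (tested at a level between 10 and 100 µM)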; 65,000 tested, 0.18% active; AID 577;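 active means z-score at -3 or under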;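 further: score is relative to mean and spread of the compound wells of a plate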
# Target sequence (P06935 1371-1501 limits assumed): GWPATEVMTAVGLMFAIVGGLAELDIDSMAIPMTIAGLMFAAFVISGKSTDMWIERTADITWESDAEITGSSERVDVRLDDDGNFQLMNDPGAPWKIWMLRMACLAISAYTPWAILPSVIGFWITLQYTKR
# Target sequence (P06935 1502-1679 limits assumed): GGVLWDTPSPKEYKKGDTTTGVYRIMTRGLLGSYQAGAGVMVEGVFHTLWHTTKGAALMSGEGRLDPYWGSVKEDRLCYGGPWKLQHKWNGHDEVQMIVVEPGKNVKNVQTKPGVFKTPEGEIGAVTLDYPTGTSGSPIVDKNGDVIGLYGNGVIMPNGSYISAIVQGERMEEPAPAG
# MT1-MMP promoter – MT1-MMP gene expression reporter suppression – cell-based, luciferase reporter, luminescence (AID 618); MT1-MMP promoter luciferase reporter cells, luminescence; calls from a first round at 10 µM; hits with a dose series show EC50 in µM; 87,000 tested, 0.62% active;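 active means over half of the reporter light lost at 10 µM or EC50 under 50 µM; inactive means the rest and hits that failed the dose series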;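 further: actives suppress MT1-MMP promoter-driven transcription so potencies describe inhibitors; HT1080 fibrosarcoma cells; overnight exposure; toxic or luciferase-blocking compounds were not removed from the actives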
# Hsc70 ATP site – Hsc70 inhibitors, probe displacement, primary screen, biochemical, fluorescence polarization (AID 568); Hsc70 fluorescence polarization, probe displacement; higher % means a stronger effect; strong numbers were not always called active; displacement, % at 20 µM; hits with a dose series show IC50 in µM; 83,000 tested, under 10 active;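 active means displacement above 50% without optical interference and an IC50 on retest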;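 further: ATPase domain with a fluorescein-tagged ATP probe; 0% = vehicle and 100% = excess ADP; read after one hour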
# An asterisk follows results filed as active; i = inactive; · = no result given. A portion of the library; the hit share may differ from the screen's.
SMILES,WNV protease inh,MT1-MMP promoter,Hsc70 ATP site
Cc1cccc(-n2c(Cc3cc(=O)[nH]c(=O)[nH]3)nnc2SCC(=O)N2CCCCC2)c1,-1.3,i,-2.4%
CC1C[C@@]2(NC(=O)NC2=O)C(C)CN1C (stereo partly specified),0.5,i,-1.1%
CCCCNS(=O)(=O)c1ccc2nc(SCC(=O)N3CC(C)OC(C)C3)[nH]c2c1 (stereo unspecified),·,i,-1.2%
CC(C)Sc1nc2c(c(=O)n1-c1ccc(F)cc1)SCC2,0.59,i,3.1%
O=C(Cc1ccsc1-c1ccccc1)NO,0.39,i,-0.1%
O=S(=O)(c1ccc(-c2csc(=Nc3ccccc3)n2CCCN2CCOCC2)cc1)N1CCOCC1,·,i,0.3%
COc1ccc(S(=O)(=O)N(CCCN2CCCC2=O)Cc2cc3c(C)cc(C)cc3[nH]c2=O)cc1,0.11,i,-4.3%
COc1ccc(NC(=O)CN(c2ccc(C)cc2)S(=O)(=O)c2c(C)nn(C)c2C)cc1OC,1.2,i,-6.9%
COc1ccc(S(=O)(=O)NCCSC(C)(C)C)cc1,·,i,5.0%
CCOC(=O)N1CCN(C(=O)CCCn2c(=S)[nH]c3ccc(Br)cc3c2=O)CC1,·,i,0.7%
COc1ccccc1NC(=O)c1ccc(S(=O)(=O)N2CCOCC2)cc1,0.3,i,3.4%
O=S(=O)(c1cccc2nsnc12)N1CCN(C/C=C/c2ccccc2)CC1,-0.71,i,-8.3%
CCc1ccc(-c2nc(CN3CCC(C(=O)NCCN(CC)c4ccccc4)CC3)c(C)o2)cc1,0.99,i,2.9%
COc1ccc(C)cc1NC(=O)C1CCCN(S(=O)(=O)c2cnc[nH]2)C1 (stereo unspecified),-0.08,i,0.1%
O=C(O)c1cc(S(=O)(=O)NCc2ccco2)c(Cl)cc1Cl,-0.24,i,0.4%
CC(C)n1c(SCC(=O)c2ccc3c(c2)OCCO3)nc2c1c(=O)n(C)c(=O)n2C,0.2,i,5.3%
CC(=O)c1ccc(-n2nnnc2SCC(=O)N2CCc3ccccc3C2)cc1,0.03,i,2.6%
O=C(c1cccnc1NCc1ccc(F)cc1)N1CCOCC1,-0.64,i,0.6%
COc1cc(OC)cc(-c2nnc(SCC(=O)Nc3cc(C)on3)o2)c1,-0.52,i,6.3%
CCOc1ccc(CC(C(N)=O)C(N)=O)cc1CN(C)C,·,i,0.7%
CN1CCN(c2ccccc2NC(=O)c2ccc(OCc3ccccc3)cc2)CC1,0.52,i,4.4%
COc1ccc(-c2cn3c(C)c(C(=O)Nc4cccc(NC(C)=O)c4)sc3n2)cc1,-0.02,i,4.8%
CCN(CC)C(=O)C(=O)c1cccn1-c1ccccc1C#N,·,i,2.7%
CCOC(=O)c1ccc(NC(=O)CCc2nc(-c3cccc(C)c3)no2)cc1,0.69,i,-1.3%
O=C(O)CNS(=O)(=O)c1cccc2nsnc12,·,i,8.7%
SMILES,WNV protease inh,MT1-MMP promoter,Hsc70 ATP site
CCOc1ccc(N(CC(=O)Nc2ccccc2)S(C)(=O)=O)cc1,-0.59,i,2.9%
Cc1cc(C)n(C(=O)Cn2nc(C(F)F)cc2C)n1,·,i,3.4%
CCCOc1ccc(N2C(=O)CC(SC(=NCC)Nc3cccc(F)c3)C2=O)cc1 (stereo unspecified),·,i,2.3%
COCCSc1ccccc1C(=O)NCc1ccco1,-1.3,i,-4.2%
O=C1c2ccsc2SCCN1Cc1ccc(Cl)cc1,·,i,3.5%
CCCc1cc(NCC2CCCO2)n2c(nc3ccccc32)c1C#N (stereo unspecified),·,i,1.8%
COc1ccc(S(=O)(=O)N2CCc3ccccc3C2)cc1OC,·,i,0.2%
N#Cc1ccsc1NC(=O)COc1ccc(-c2nnco2)cc1,1.1,i,-9.5%
Cc1c(C#N)sc2nc(-c3ccccc3)nc(N3CCCC3)c12,0.19,i,1.2%
CCCCSc1nc(O)c(C2OC(=O)c3c2ccc(OC)c3OC)c(=O)n1C (stereo unspecified),2,i,4.9%
O=C(c1ccc(COc2ccc(F)cc2)o1)n1cccn1,0.72,i,-1.1%
CC(C)(C)n1nc2c(c1NC(=O)Cc1cccc3ccccc13)CS(=O)C2 (stereo unspecified),0.03,i,2.4%
Nn1c(SCC(=O)N2CCCCCC2)nnc1-c1ccncc1,·,i,4.5%
COc1ccccc1NC(=O)CC1Nc2ccccc2NC1=O (stereo unspecified),2,i,-2.1%
CC1Oc2ccccc2N(CC(=O)Nc2ccc3c(c2)OCO3)C1=O (stereo unspecified),-0.46,i,-4.5%
CCOC(=O)CSCc1c(C#N)c2ccccc2n1C,0.94,i,4.5%
Cc1cccc(N2CN=c3s/c(=C\c4ccncc4)c(=O)n3C2)c1,-0.63,i,0.3%
CCN(CC)C(=O)n1nc(C)c(CN2C(=O)c3ccccc3C2=O)c1C,·,i,5.1%
N/C(Cc1ccc([N+](=O)[O-])cc1)=N\OC(=O)c1ccc2ccccc2c1,·,i,6.0%
COc1cccc(NC(=O)N(C2CCCCC2)C(C)c2cccs2)c1 (stereo unspecified),·,i,-1.2%
CCCc1nc(Nc2nc3ccccc3o2)nc(C)c1C(=O)OCC,-0.18,i,4.6%
CCN(CC)S(=O)(=O)c1ccc2c(c1)nc(SCC(=O)NC1CC1)n2-c1ccccc1OC,-0.69,i,-2.6%
CCOc1ccc(-c2nnc(NC3=NCCCCC3)o2)cc1,·,i,1.5%
Cc1ccc(C2C(C(=O)c3sc(C)nc3C)=C(O)C(=O)N2CCN2CCOCC2)o1 (stereo unspecified),-0.32,i,-4.3%
Cc1cccc(C(C)(C)C)c1OCCn1ccnc1,1.6,i,5.0%
SMILES,WNV protease inh,MT1-MMP promoter,Hsc70 ATP site
CCn1c(COc2cccc(OC)c2)nnc1SCC(=O)Nc1cc(OC)ccc1OC,0.14,i,-2.5%
CCSC1=C(C#N)C(c2ccc(Cl)cc2)C2=C(CCCC2=O)N1 (stereo unspecified),0.16,i,-6.2%
O=C(COC(=O)C1(c2ccc(Cl)cc2)CCCC1)NC1CCS(=O)(=O)C1 (stereo unspecified),·,i,-0.2%
O=C(O)c1nn2c(c1Br)NC(c1ccccc1)CC2C(F)(F)F (stereo unspecified),0.12,i,-4.6%
COc1nc(-c2ccc(C)cc2)ccc1-c1noc(-c2ccco2)n1,0.43,i,-27%
COc1cccc(NC(=O)C2CCCN2C(=O)OCc2ccccc2)c1 (stereo unspecified),-0.6,i,-0.4%
Oc1cc2c(cc1CN1CCN(c3cccc(C(F)(F)F)c3)CC1)CCC2,·,i,-0.2%
Clc1ccc(OCCn2ccnc2)c(Br)c1,·,i,-1.3%
Cc1ccc(S(=O)(=O)N2CCC(C(=O)N3CCC(C(=O)NCc4cccnc4)CC3)CC2)cc1,-2,i,-2.6%
CCOc1ccc(-c2nc(-c3cccnc3)no2)cc1,·,i,-1.2%
CN1CCN(C(=O)c2ccc3c(=O)n(CCc4ccccc4)c(=S)[nH]c3c2)CC1,0.13,i,3.1%
COc1ccc(NS(=O)(=O)c2cccc(-c3nnc4n3CCCCC4)c2)cc1,-0.87,i,-6.5%
O=C(NCc1ccc(F)cc1)c1ccc(CS(=O)(=O)Cc2ccc(F)cc2)o1,0.54,i,4.6%
CCOc1cc(N2CCOCC2)c(OCC)cc1NC(=O)CCC1CCCC1,-0.33,i,0.0%
COc1cccc(OC)c1C(=O)Nc1cc(C)on1,·,i,-2.9%
OC1(Cc2ccn[nH]2)CCCCC1,-0.55,i,2.6%
CN(C)C=Nc1ncc2c([nH]c3ccccc32)c1C#N,0.37,i,2.8%
O=C1Nc2ccccc2/C1=N\c1sc2c(c1C(=O)Nc1ccccc1)CCCC2,·,i,3.0%
Cc1cccc(OC(=O)c2ccc3nccnc3c2)c1,·,i,2.6%
O=C(c1cn(-c2ccccc2)nc1-c1cccs1)N1CCN(c2ccccc2)CC1,·,i,-0.4%
Cn1c(CN2CCCCC2)nc2cc(NC(=O)c3ccc(F)cc3)ccc21,0.6,i,-4.7%
CCOC(=O)c1ccc(Nc2nc(C)cc(=O)[nH]2)cc1,·,i,1.8%
CCOC(=O)N1CCC(NC(=O)CCC(=O)c2ccccc2)CC1,0.04,i,-2.3%
CCc1nn(-c2cc(Cl)ccc2OC)c2c1C(=O)CCC2,-0.91,i,-0.4%
CC(=O)N=C(N)Sc1nc2ccccc2[nH]1,0.61,i,1.8%

# Of the compounds above, these contain a CF3 group:
SMILES,WNV protease inh,MT1-MMP promoter,Hsc70 ATP site
O=C(O)c1nn2c(c1Br)NC(c1ccccc1)CC2C(F)(F)F (stereo unspecified),0.12,i,-4.6%
Oc1cc2c(cc1CN1CCN(c3cccc(C(F)(F)F)c3)CC1)CCC2,·,i,-0.2%

# Next part
SMILES,WNV protease inh,MT1-MMP promoter,Hsc70 ATP site
c1ccc(-c2nnc3ccc(N4CCC5(CC4)OCCO5)nn23)cc1,-1,i,-6.4%
COc1ccc(S(=O)(=O)N(C)CC(=O)Nc2ccccc2C(F)(F)F)cc1,-0.33,i,-4.8%
COC(=O)C1=C(C)N(CCc2ccc(OC)c(OC)c2)C(=O)/C1=C\N(C)C,·,i,7.4%
CCCCNC(=O)CSc1nc2n[nH]c(C)c2c(=N)n1-c1cccc(Cl)c1C,·,i,5.1%
CCOc1ccc(N2CC(C(=O)Nc3ccccc3F)CC2=O)cc1 (stereo unspecified),0.12,i,-1.8%
Cc1ccc(S(=O)(=O)N(C)Cc2nc(-c3ccncc3)no2)cc1,1,i,-1.0%
CCOC(=O)c1ccc(NC(=O)CSc2nc(C)cc(=O)[nH]2)cc1,0.29,i,-2.1%
O=C(c1ccco1)N1CCN(C(=O)C2CCN(S(=O)(=O)c3cccs3)CC2)CC1,-0.76,i,-4.7%
CCOC(=O)c1nn(-c2ccc(OC)cc2)c(=O)c2c(N)scc12,0.56,i,-0.9%
CC(=O)N1CN(S(=O)(=O)c2ccc(C)cc2)CC1C (stereo unspecified),·,i,-0.4%
CCc1ccc(N2CC34C=CC(O3)C(C(=O)OC(C)C)C4C2=O)cc1 (stereo unspecified),-0.88,i,4.3%
OCCNc1nc(N2CCN(Cc3ccccc3)CC2)nc2ccccc12,-0.15,i,-0.6%
CCOC(=O)c1ccc2c(c1)NC(=O)C(N1CCN(c3ccc(OC)cc3)CC1)S2 (stereo unspecified),-0.41,i,-7.0%
Cc1ccc(S(=O)(=O)N2CCOCC2)c(C)c1-n1cnnn1,-0.28,i,6.8%
O=c1oc2ccccc2n1CCc1ccccc1,-0.15,i,9.5%
CC1CN=C(N(C(=O)Nc2ccccc2)c2ccc(S(=O)(=O)N3CCOCC3)cc2)S1 (stereo unspecified),0.37,i,0.1%
CCOC(=O)N1CCN(CCC(=O)c2ccc(Cl)cc2)CC1,-1.2,i,-0.2%
Cc1ccc(Nc2ncnc3sc(C)c(C)c23)cc1,·,i,-0.2%
CCC(CC)C(=O)Nc1cccc(C(=O)N2CCOCC2)c1,1.8,i,5.4%
COC(=O)c1cc(=O)nc2scc(C)n12,0.27,i,4.8%
CCOC(=O)C1Cc2cc3c(cc2C1=O)CC(C(=O)OCC)C3=O (stereo unspecified),-1.4,i,3.1%
Cc1cc(C)c2c(=O)[nH]c(SCC(=O)c3ccc(C(C)C)cc3)nc2n1,·,i,6.2%
CC1=CC(c2ccccc2)n2nc(NS(=O)(=O)c3ccc(C)cc3)nc2N1 (stereo unspecified),-0.15,i,-3.7%
Cc1c(Cl)cccc1N1CC(C(=O)Nc2nccs2)CC1=O (stereo unspecified),-0.33,i,2.2%
COCCCNC(CC(=O)Nc1ccccc1C(=O)OC)C(=O)O (stereo unspecified),-0.17,i,0.7%

# Reformatted: entries from further up
smiles	WNV protease inh	MT1-MMP promoter	Hsc70 ATP site
O=c1oc2ccccc2n1CCc1ccccc1	-0.15	i	9.5%
CC1CN=C(N(C(=O)Nc2ccccc2)c2ccc(S(=O)(=O)N3CCOCC3)cc2)S1 (stereo unspecified)	0.37	i	0.1%
CCOC(=O)N1CCN(CCC(=O)c2ccc(Cl)cc2)CC1	-1.2	i	-0.2%
Cc1ccc(Nc2ncnc3sc(C)c(C)c23)cc1	·	i	-0.2%
CCC(CC)C(=O)Nc1cccc(C(=O)N2CCOCC2)c1	1.8	i	5.4%
COC(=O)c1cc(=O)nc2scc(C)n12	0.27	i	4.8%
CCOC(=O)C1Cc2cc3c(cc2C1=O)CC(C(=O)OCC)C3=O (stereo unspecified)	-1.4	i	3.1%

# The list continues:
SMILES,WNV protease inh,MT1-MMP promoter,Hsc70 ATP site
CC(c1ccccc1)n1cc(C(=O)NCCN2CCOCC2)nn1 (stereo unspecified),1.3,i,9.3%
CCOc1ccc(OCC)c(NC(=O)C2C3C=CC(O3)C2C(=O)NCc2ccco2)c1 (stereo unspecified),0.19,i,-1.0%
CCC(C)NC(=O)C(NS(=O)(=O)c1ccc2c(c1)c(=O)n(C)c(=O)n2C)c1ccccc1 (stereo unspecified),-0.83,i,6.6%
COC(=O)c1cc(S(=O)(=O)N2CCC(C)CC2)ccc1F,-1.2,i,-2.7%
CCN(CCCNC(=O)C1CCN(S(=O)(=O)c2cnc[nH]2)CC1)c1ccccc1,-0.45,i,1.5%
CCOC(=O)c1ccc(NC2c3ncccc3C(=O)N2Cc2ccc(F)cc2)cc1 (stereo unspecified),-0.42,i,-2.8%
CS(=O)(=O)N1CCc2cc(S(=O)(=O)Nc3ccc4c(c3)OCCO4)ccc21,-0.14,i,4.2%
O=C(O)COc1ccc2c(c1)OCCO2,-0.99,i,9.0%
O=C(CCCc1nc(-c2ccccc2)no1)Nc1cccnc1,1.9,i,-0.1%
